HSV augment: enhancers of HSV replication in host cells, fold increase, host cell viability | HSV replication augmentation in cells | maximum fold increase | 0.005% of 220,000 active | AID 1956, 2009;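 active means peak rise of 1.5-fold or more in the series; inconclusive means self-fluorescent or not available for retest; tested in PC3 cells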;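 further: first round at 10 µM; read as green reporter fluorescence; hits show the peak of a series up to 25 µM; 1 = signal of infected wells without compound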
GALR2 agonist: GALR2 receptor agonists, primary screen, cell-based | AID 803, 2007 | 0.48% of 140,000 active | GALR2-expressing cells, agonist activation read-out | activation, %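 (tested at 5 µM)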;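 active means above mean plus 3 SD of all compounds, about 5% in these data, not always enough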;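 further: 0% = vehicle buffer wells and 100% = reference agonist at full effect; tested in CHO reporter cells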
Target sequence (O43603 whole entry, looked up): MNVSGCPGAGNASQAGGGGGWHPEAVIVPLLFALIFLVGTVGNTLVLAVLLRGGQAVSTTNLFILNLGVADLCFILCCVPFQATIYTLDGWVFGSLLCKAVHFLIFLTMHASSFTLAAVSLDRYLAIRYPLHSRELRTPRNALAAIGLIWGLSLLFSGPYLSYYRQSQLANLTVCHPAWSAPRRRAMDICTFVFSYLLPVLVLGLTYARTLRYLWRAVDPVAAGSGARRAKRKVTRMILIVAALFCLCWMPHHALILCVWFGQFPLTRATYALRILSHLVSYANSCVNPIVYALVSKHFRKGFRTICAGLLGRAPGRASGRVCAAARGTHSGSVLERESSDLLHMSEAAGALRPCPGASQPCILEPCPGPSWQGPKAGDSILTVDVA
RGS16-Gao HTS: modulators of RGS16 binding to Galphao, primary screen, biochemical, human proteins, multiplexed bead flow cytometry. 0.38% of 220,000 active. AID 1441, 2008. bead-based flow cytometry RGS16-Galphao binding, fluorescence; actives lie on both sides. binding response (% of control), % at 10 µM. Regulator of G-protein signaling 16 (Homo sapiens) + Guanine nucleotide-binding protein …;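 active means below 25% or above 175%, edge rows of some plates excepted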;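 further: Galphao activated by GDP with aluminum fluoride before binding; 100% = wells without compound and 0% = beads without RGS; some results beyond the cut were filed as inactive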
Target sequence (O15492 whole entry, looked up): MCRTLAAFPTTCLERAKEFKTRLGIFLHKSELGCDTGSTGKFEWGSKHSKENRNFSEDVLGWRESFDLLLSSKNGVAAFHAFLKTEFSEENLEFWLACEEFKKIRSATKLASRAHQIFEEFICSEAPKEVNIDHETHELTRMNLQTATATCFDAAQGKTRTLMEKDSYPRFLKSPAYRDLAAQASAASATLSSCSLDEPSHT
Target sequence (P09471 whole entry, looked up): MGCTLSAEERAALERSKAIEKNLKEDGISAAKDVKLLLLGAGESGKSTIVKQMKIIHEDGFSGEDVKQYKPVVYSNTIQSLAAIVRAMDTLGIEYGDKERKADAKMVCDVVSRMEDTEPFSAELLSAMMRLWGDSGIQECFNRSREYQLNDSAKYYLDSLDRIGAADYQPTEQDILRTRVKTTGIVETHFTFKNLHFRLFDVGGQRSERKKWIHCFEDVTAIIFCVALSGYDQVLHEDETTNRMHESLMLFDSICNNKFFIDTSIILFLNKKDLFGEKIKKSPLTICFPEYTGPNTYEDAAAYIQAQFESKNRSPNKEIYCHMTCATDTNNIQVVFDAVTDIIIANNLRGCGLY
Insulin prom inh: inhibitors of insulin promoter-driven GFP, primary screen, imaging, TRM-6 cells (human fetal islet line), eGFP reporter, cell count; reporter expression induced with tamoxifen; inhibition, % at 2 µM; AID 1273, 2008; 0.9% of 130,000 active;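 active means inhibition above the mean plus 3 SD, with well images judged a real hit on visual review, cut at about 60% in these data, passing the limit was not always enough; inconclusive means inhibition over the cutoff but images rejected on review; inactive means inhibition not above the cutoff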
PKD1 kinase inh: inhibitors of human PKD1 kinase, biochemical, fluorescence polarization; PKD1 kinase fluorescence polarization assay; Serine/threonine-protein kinase D1 (Homo sapiens), Q15139; inhibition, %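 (about 10 µM by stock and volumes)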; 0.056% of 200,000 active;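 active means inhibition of 50% or more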;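 further: controls were vehicle for no effect and a reference inhibitor for full effect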
Insulin prom inh cell count: also measured in Insulin prom inh; calls as there; normalized cell count, %; measured here: cell count, toxicity; reference of the scale not given here;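 cells exposed to compound for 48 h; stained nuclei by imaging scaled within each plate; lower means fewer cells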
HSV augment primary fold: recorded beside HSV augment, whose call it bears; fold increase; compound at 10 µM; measured here: primary screen fold increase 10 uM; tested in PC3 cells;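 GFP signal in the first replicate; 1 = infected wells without compound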
* = called active by the depositor; i = inactive; ? = inconclusive; · = not tested or not shown.

SMILES | HSV augment | HSV augment primary fold | GALR2 agonist | RGS16-Gao HTS | Insulin prom inh | Insulin prom inh cell count | PKD1 kinase inh
COC(=O)c1cc(Nc2cc(C)c3c(O)cccc3n2)cc(C(=O)OC)c1 | i | 0.85 | · | 103 | · | · | ·
CSc1ncccc1C(=O)N1CCCC(C(=O)c2cc(F)ccc2F)C1 (centres undefined) | i | 0.99 | · | 105 | · | · | 3
CC1Cc2ccccc2N1CC(=O)NC(=O)NCc1ccccc1 (centres undefined) | i | 1 | · | 99 | · | · | -2
COc1ccc(C(Nc2ccccn2)c2c(NC(=O)c3ccco3)sc(C)c2C)cc1OC (centres undefined) | i | 0.95 | -0.1 | 99 | · | · | -3
Cc1ccc(NC(=O)Nc2ccc(F)c(Cl)c2)cc1 | i | 0.97 | · | 99 | · | · | -1
Cc1cc(C)c(NC(=O)COc2ccccc2C(=O)Nc2ccc3c(c2)oc2ccccc23)c(C)c1 | i | 0.88 | 1.4 | 99 | -36 | 84 | -7
c1ccc(-c2ccc(OCCCNC3CCCC3)cc2)cc1 | i | 0.76 | · | 98 | · | · | -3
Cc1c(N(C(=O)c2cc(=O)[nH]c3ccccc23)C(C)C)c(=O)n(-c2ccccc2)n1C | i | 1.2 | -0.9 | 104 | 10 | 95 | -14
COc1ccccc1CN(C)C(=O)C1COc2ccccc2O1 (centres undefined) | i | 0.8 | -1.6 | 98 | 18 | 146 | 0
Cn1nc(-c2ccc(C(=O)Nc3ccc(F)cc3)cc2)c2ccccc2c1=O | i | 0.83 | · | 92 | · | · | 4
COC(=O)c1ccccc1NC(=S)NC(=O)c1ccccc1F | i | 1.1 | 0.5 | 101 | 0 | 112 | 3
CN(C)S(=O)(=O)c1ccc(Cl)c(NC(=O)COC(=O)c2ccc(O)cc2)c1 | i | 0.93 | · | 98 | · | · | 7
Cc1cc(-c2ccccc2)c2c(=O)[nH][nH]c2n1 | i | 1.1 | -1.5 | 98 | 6 | 82 | -1
COc1ccc(-n2c(N)c(C(=O)NCc3ccco3)sc2=S)cc1 | i | 0.98 | -1.6 | 99 | 46 | 115 | -10
CCCSc1nnc(CNC(=O)C23CC4CC(CC(C4)C2)C3)n1Cc1ccccc1 | · | · | 0.2 | 106 | · | · | 0
O=[N+]([O-])c1cc(/C=N/Nc2nc(N3CCCCC3)nc(N3CCCCC3)n2)ccc1O | i | 0.88 | -0.4 | 104 | 36 | 176 | 6
CN(C)C(=O)N1CCC(C(=O)NCc2ccccc2)CC1 | i | 0.85 | -2.8 | 104 | 12 | 109 | 16
CC(=O)c1ccc(NC(=O)CSc2nnc(NC(=O)CN3CCOCC3)s2)cc1 | i | 1 | -0.8 | 97 | · | · | -14
COc1cc2cc(Oc3ccc4ccc(=O)oc4c3)c(=O)oc2cc1OC(=O)/C=C/c1ccccc1 | i | 1.2 | · | 101 | · | · | ·
O=C(CSc1ncccn1)NC(=O)NCc1ccco1 | i | 0.94 | · | 98 | 17 | 137 | -8
O=C(NCc1cccs1)c1ccccc1[N+](=O)[O-] | i | 0.9 | -1.8 | 92 | -32 | 162 | -7
CN(C)N1C(N)=C(C#N)C(c2cccs2)C2=C1CC(C)(C)CC2=O (centres undefined) | i | 1.2 | · | 103 | 61 | 87 | 7
CC(=O)Nc1ccc2c(CN3C(=O)NC(C)(c4ccc(C)cc4)C3=O)cc(=O)oc2c1 (centres undefined) | i | 0.92 | · | 104 | 0 | 111 | -5
CCOC(=O)c1c(C)n(C)c2c(C)cc(O)c(OC(=O)CC)c12 | i | 0.81 | -1.0 | 102 | 27 | 49 | -8
Cn1c2ccccc2c2cc(/C=C(\NC(=O)c3ccccc3)C(=O)NCC(=O)O)ccc21 | ? | · | · | 91 | · | · | ·
O=C(CSc1nnc(-c2ccc(F)cc2)c2ccccc12)Nc1cccc(Cl)c1 | i | 0.89 | -0.9 | 96 | · | · | -5
O=C(O)CCCC(=O)N1CCc2cc(S(=O)(=O)NCc3ccccc3)ccc21 | i | 0.93 | · | 104 | · | · | 1
OC1(c2ccccc2)CN(c2ccccc2)C2=[N+]1CCS2 (centres undefined) | i | 1.1 | -0.3 | 232 | · | · | 2
CC(C)C[C@H](CO)Nc1nc(Nc2cccc(Cl)c2)c2ncn(C(C)C)c2n1 | i | 0.62 | · | 102 | · | · | ·
Cc1nc(NC(=O)C2CC2)sc1C(=O)NC1CCCCC1 | i | 0.9 | · | 90 | 36 | 103 | -5
O=C(Cc1ccccc1)Nc1ccc(Br)c(Cl)c1 | i | 0.99 | -1.7 | 26 | 16 | 67 | -10
CCCc1[nH]nc2c1C(c1cn[nH]c1-c1ccc(F)cc1)C(C#N)=C(N)O2 (centres undefined) | i | 0.85 | -0.6 | 88 | -8 | 95 | 10
CCC(C)NC(=O)CCCc1ccccc1 (centres undefined) | i | 0.93 | -3.4 | 107 | 17 | 52 | 5
O=C(OCC(=O)N1CCCC1)c1ccc(NS(=O)(=O)c2cccs2)cc1O | i | 1 | · | 101 | · | · | 1
COC(=O)c1ccc(Cl)c(NC(=O)CN2CCN(C)CC2)c1 | i | 1 | -0.7 | 99 | 15 | 90 | 5
O=[N+]([O-])c1ccc(-c2ncc(-c3ccc(Br)cc3)o2)cc1 | i | 0.95 | · | 91 | · | · | ·
CC(c1ccccc1)n1c(S(=O)(=O)O)nc2ccccc21 (centres undefined) | i | 1 | · | 107 | · | · | -2
COc1ccc(Cc2nnc(NC(=O)c3ccc(OC)c(OC)c3)s2)cc1OC | i | 1 | · | 99 | · | · | 0
COc1ccccc1-c1ccc(SCC(=O)NCc2ccc3c(c2)OCO3)nn1 | i | 0.93 | · | 83 | -59 | 97 | -1
COc1cccc(NC(=S)N(CCN(C)C)Cc2cccs2)c1 | i | 0.94 | · | 102 | · | · | -6

The last 4 compounds of the part above come first, to join the parts.
SMILES | HSV augment | HSV augment primary fold | GALR2 agonist | RGS16-Gao HTS | Insulin prom inh | Insulin prom inh cell count | PKD1 kinase inh
CC(c1ccccc1)n1c(S(=O)(=O)O)nc2ccccc21 (centres undefined) | i | 1 | · | 107 | · | · | -2
COc1ccc(Cc2nnc(NC(=O)c3ccc(OC)c(OC)c3)s2)cc1OC | i | 1 | · | 99 | · | · | 0
COc1ccccc1-c1ccc(SCC(=O)NCc2ccc3c(c2)OCO3)nn1 | i | 0.93 | · | 83 | -59 | 97 | -1
COc1cccc(NC(=S)N(CCN(C)C)Cc2cccs2)c1 | i | 0.94 | · | 102 | · | · | -6
CCCCN1C(=O)CCC(C(=O)O)C1c1ccc(OC)cc1 (centres undefined) | i | 1.1 | -1.2 | 97 | 17 | 72 | -9
Cc1nn(C)c(C)c1/C=N/NC(=O)CCn1cc([N+](=O)[O-])cn1 | i | 1.1 | 92* | 79 | · | · | -5
O=C(Cc1ccccc1)Nc1cccc(-c2nc3ncccc3o2)c1 | i | 0.89 | -1.5 | 97 | 29 | 80 | -4
Cc1ccc(NC(=O)CCC(=O)O)cc1F | i | 0.93 | -2.6 | 101 | 9 | 35 | 7
CN(C)CC/C=C1\c2cc(F)ccc2CSc2ccccc21 | i | 0.72 | -1.0 | 101 | 41 | 79 | -2
Cc1cccc(NC2=C(NCCO)C(=O)c3ccccc3C2=O)c1 | i | 0.94 | -1.0 | 99 | · | · | 0
COc1ccc(OC)c(N(CC(=O)N2CCCC2)S(=O)(=O)c2ccc(OC)c(OC)c2)c1 | i | 0.82 | -2.3 | 74 | 44 | 116 | 2
COc1ccc(OC)c(C2NC(=O)c3sc(=S)n(-c4ccccc4)c3N2)c1 (centres undefined) | i | 1.1 | -0.8 | 99 | -12 | 142 | -8
O=C(CSc1ccc(-c2ccccc2)nn1)N1CCCc2ccccc21 | i | 1.2 | -1.2 | 105 | · | · | -1
N#Cc1cccc(C(c2nnnn2Cc2ccccc2)N2CCCC2)c1 (centres undefined) | i | 1.1 | -3.0 | 107 | · | · | -12
CCN(CC)c1ccc(C(=O)c2ccccc2C(=O)O)c(O)c1 | i | 0.7 | -2.1 | 100 | -300 | 62 | 1
CN(NS(C)(=O)=O)c1c(C#N)c(C(F)(F)F)nn1C | · | · | · | 107 | 29 | 160 | -10
CCCn1c(SCC(=O)NC2CCCCC2C)n[nH]c1=O (centres undefined) | i | 0.99 | -1.6 | 83 | -34 | 120 | -5
Cc1ccc(-n2nc(C)c(NS(=O)(=O)c3ccccc3)c2C)cc1C | i | 0.77 | -2.0 | 105 | -17 | 143 | -4
CC1Cc2nc(SCC(=O)Nc3ccc4c(c3)OCO4)n(-c3ccc(F)cc3)c(=O)c2S1 (centres undefined) | i | 0.87 | · | 72 | · | · | ·
COc1cccc2cc(C(=O)c3ccc([N+](=O)[O-])cc3)oc12 | i | 0.86 | · | 102 | 47 | 103 | -7
CCCCN=C(C)c1c(O)c2ccccc2oc1=O | i | 1 | -0.9 | 92 | · | · | -5
CCN1CCN(C(=O)c2ccccc2N(Cc2ccccc2)S(=O)(=O)c2ccc(C)cc2)CC1 | i | 0.83 | -0.7 | 101 | -367 | 101 | -3
O=C(CCCCCn1c(=S)[nH]c2ccc(Br)cc2c1=O)NCC1CCCO1 (centres undefined) | i | 0.86 | -2.5 | 100 | -19 | 95 | -4
O=C1[C@@H]2[C@@H]3C[C@@H]([C@H]4ON=C(c5ccc(Cl)cc5)[C@@H]34)[C@@H]2C(=O)N1c1ccc2c(c1)OCO2 | i | 1.1 | -2.2 | 102 | -19 | 94 | 3
CCC(C)C(NC(=O)/C(=C\c1ccccc1)NC(=O)c1ccc(OC)cc1)C(=O)O (centres undefined) | i | 0.99 | · | 103 | · | · | -4
CCOC(=O)C1CCCN(c2c(N3CCOCC3)c(=O)c2=O)C1 (centres undefined) | i | 0.97 | -1.8 | 109 | · | · | -14
O=C(CN1CCN(Cc2ccccc2Cl)C1=O)N1CCCCCC1 | i | 0.99 | -1.6 | 78 | 0 | 86 | -4
CCc1nn2c(N3CCOCC3)cc(C)nc2c1-c1ccc(F)cc1 | i | 0.91 | 0.3 | 102 | 18 | 54 | -3
COCCNC(=O)C(OC(=O)C1=Cc2ccccc2OC1)C(C)C (centres undefined) | i | 0.95 | · | 104 | · | · | -3
O=C(Nc1ccc2c(c1)OCCO2)c1ccncc1 | i | 1 | -1.8 | 97 | 40 | 106 | -11
Cc1c(Cl)cccc1N(Cc1ccc(C(=O)O)cc1)S(=O)(=O)c1ccccc1 | i | 1.3 | · | 101 | 35 | 109 | 6
COc1ccc(CCN2C(=O)CC(Sc3ncccc3C(=O)O)C2=O)cc1OC (centres undefined) | i | 0.73 | -1.4 | 103 | 15 | 128 | 7
O=C1c2ccccc2C(=O)N1CC1c2ccccc2CCN1S(=O)(=O)c1cnc[nH]1 (centres undefined) | i | 1.2 | -1.5 | 100 | · | · | 5
CC1(C)CC(NC(=O)C23CCC(C)(C(=O)C2=O)C3(C)C)CC(C)(C)N1 (centres undefined) | i | 0.91 | · | 103 | 0 | 74 | 0
Cc1nc(NC2=NCN(CCc3ccccc3)CN2)nc2c(C)cccc12 | · | · | -1.4 | · | -235 | 65 | -2
Cn1c(=O)[nH]c(=O)c2c1nc(N1CCN(CCO)CC1)n2CCSc1nc2ccccc2s1 | i | 0.71 | -1.0 | 102 | · | · | -3
Nc1cc(=O)nc(SCC(=O)NCc2ccccc2)n1CCc1ccccc1 | i | 1 | -1.9 | 95 | 12 | 82 | -10
CSc1sc(C(=O)NCC2CC2)c(-c2cccs2)c1C#N | i | 0.97 | · | 107 | · | · | ·
COC(=O)c1ccc(NC(=O)C2CCCN(S(C)(=O)=O)C2)cc1 (centres undefined) | i | 1 | · | 93 | · | · | 1
CC(=O)Nc1cccc2c1C(=O)NC2=O | i | 0.85 | -2.6 | 102 | -16 | 77 | -11

Structures from the list above that have bromine, in the order listed:
SMILES | HSV augment | HSV augment primary fold | GALR2 agonist | RGS16-Gao HTS | Insulin prom inh | Insulin prom inh cell count | PKD1 kinase inh
O=C(Cc1ccccc1)Nc1ccc(Br)c(Cl)c1 | i | 0.99 | -1.7 | 26 | 16 | 67 | -10
O=[N+]([O-])c1ccc(-c2ncc(-c3ccc(Br)cc3)o2)cc1 | i | 0.95 | · | 91 | · | · | ·
O=C(CCCCCn1c(=S)[nH]c2ccc(Br)cc2c1=O)NCC1CCCO1 (centres undefined) | i | 0.86 | -2.5 | 100 | -19 | 95 | -4

Screens as filed in PubChem.
